miR-21 reporter: qHTS Assay for Modulators of miRNAs and/orActivators of miR-21. AID 2288, 2010. HeLa miR-21 FLuc reporter, luciferase, 48 h. 340,000 tested, under 10 active. Potency, µM (series often up to 38.3 µM), without a hit: top-dose reporter change, positive = more light; active = well fitted rising curve with a large enough effect; inconclusive = small, poorly fitted or top-dose-only effect; inactive = no such curve, though single readings can be large or run the other way;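 further: % of control where 0% means no effect; miR-21 action dims this reporter so a rising signal means less miR-21 action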
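Luminescence from a firefly luciferase reporter carrying a miR-21 binding site downstream, stably expressed under a CMV promoter in HeLa cells that make miR-21 endogenously, reports miRNA modulation after 48 h compound exposure up to approximately 40uM final.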
Rango dissoc inh: qHTS Assay for Inhibitors of RanGTP induced Rango (Ran-regulated importin-beta cargo) - Importin beta complex dissociation. Biochemical FRET Rango-importin beta, RanGTP-induced dissociation. 340,000 compounds, 0.071% hits. Potency, µM (series often up to 46.1 µM), for inactives: at the top dose activity change, negative = inhibition; active means falling FRET ratio curve, often poorly fitted, with flat reads before Ran was added; inconclusive means other falling curves, or compound fluorescence or quenching; inactive means flat or rising ratio curve;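 further: potency means the concentration at half of the fitted maximal effect; % of control where 0% means no effect; nearly all actives have a fitted effect of over 45% in size; -100% = wells without RanGTP and RCC1; the record marks most hits as doubtful in a second field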
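Recombinant Rango FRET biosensor (EYFP–snurportin 1 IBB–cerulean CFP10) at 0.1 uM premixed with 0.25 uM importin beta in PBS, 1 mM DTT, 0.02% Tween-20, 0.1% BSA. Compound added 5 min; RanGTP-RCC1 (0.6 uM Ran, 2 mM GTP, 0.2 uM RCC1) then triggers release, read at 45 min.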
GLA inh pH 4.5: qHTS Assay for Inhibitors of Human alpha-Galactosidase at pH 4.5. activity change, negative = inhibition, % at 105 µM. purified enzyme, 4-MU-alpha-Gal fluorescence, pH 4.5. 230,000 tested, under 10 active. Alpha-galactosidase A (Homo sapiens), P06280; inconclusive = small, poorly fitted or top-dose-only inhibition, or a rising curve; inactive = flat fitted curve, though single readings scatter; no compound was filed as active;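 further: 0% = full activity with enzyme and -100% = basal without enzyme; dose as in the result columns while the protocol names 77 µM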
Target sequence (P06280 whole entry, looked up): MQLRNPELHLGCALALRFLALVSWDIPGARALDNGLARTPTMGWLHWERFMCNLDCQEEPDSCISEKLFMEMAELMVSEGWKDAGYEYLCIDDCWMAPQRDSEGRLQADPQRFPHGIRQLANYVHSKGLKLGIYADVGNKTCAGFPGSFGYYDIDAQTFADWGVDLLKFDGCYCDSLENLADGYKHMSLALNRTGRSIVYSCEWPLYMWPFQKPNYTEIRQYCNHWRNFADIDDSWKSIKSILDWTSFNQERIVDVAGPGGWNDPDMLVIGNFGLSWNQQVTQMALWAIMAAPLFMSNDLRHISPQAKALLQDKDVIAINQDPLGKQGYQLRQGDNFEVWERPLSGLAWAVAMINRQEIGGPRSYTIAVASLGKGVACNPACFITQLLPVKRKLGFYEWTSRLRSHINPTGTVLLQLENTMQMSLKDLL
Rango-impB inh: qHTS Assay for Inhibitors of Rango (Ran-regulated importin-beta cargo) - Importin beta complex formation; 340,000 compounds, 0.031% hits; AID 540263, 2011; Rango CFP/YFP FRET sensor + importin beta, 45 min; Potency, µM (doses to about 92.2 µM), inactives show at the highest dose inhibition of complex formation; Importin subunit beta-1 (Homo sapiens), Q14974; active = rising FRET ratio curve, often small or poorly fitted; inconclusive = mostly compound fluorescence or quenching in the first reads; inactive = flat curves in all reads;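 further: potency means the concentration at half of the fitted maximal effect; 0% = DMSO wells and 100% = buffer wells lacking importin beta; nearly all actives have a fitted effect of over 15% in size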
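FRET biosensor (snurportin 1 IBB flanked by EYFP and cerulean), 50 nM, with compound 5 min, then 0.125 microM importin beta in PBS, 1 mM DTT, 0.02% Tween-20, 0.1% BSA. CFP/YFP ratio read after 45 min at room temperature; pre-read flags interference.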
Active calls of the source: *; u = inconclusive; x = no result given; & = joins results of further samples.

SMILES	miR-21 reporter	Rango dissoc inh	GLA inh pH 4.5	Rango-impB inh
Oc1ccc(Br)cc1-c1ccnn1-c1ccccc1	11%	-11%	x	3.1%
O=C(Nc1ccccc1C(=O)N1CCOCC1)c1ccncc1	-2%	-4%	-2	0.0%
COc1cc(C(=O)Oc2c(CN3CCOCC3)cc(Cl)c3cccnc23)cc(OC)c1OC	u	3%	-6	-3.5%
CN(CCCC(=O)Nc1ccc(OC(F)F)cc1)S(=O)(=O)c1ccc(F)cc1	16%	-15%	x	7.1%
CCC(C)[C@H](NC(=O)C1CC(=O)N(c2ccc3c(c2)OCCO3)C1)C(=O)N1CCCCC1 (some centres undefined)	-3%	-8%	x	4.0%
CCOc1cc(C=O)ccc1OCC(N)=O	-1%	17%	3	-0.2%
COc1cccc(C2C3(C#N)C(N)=NC(OC)(OC)C23C#N)c1 (centres undefined)	-4%	-14%	4	-2.9%
Cc1cc(/C=C2\SC(=O)N(C)C2=O)c(C)n1-c1ccc(S(N)(=O)=O)cc1	-31%	-13%	x	-2.8%
CC(=O)N1CCN(C(=O)c2ccc3c(c2)S(=O)(=O)c2ccccc2C3=O)CC1	-3%	-12%	x	4.0%
Cc1ccc(C)c(-n2c(SCC(N)=O)nnc2-c2ccccn2)c1	-1%	-6%	7	-3.0%
COc1ccc(C(C)(C)C)cc1NC(=O)COC(=O)C1=NNC(=O)CC1	x	3%	x	-3.0%
CC(C)(C)NS(=O)(=O)c1ccc(C(=O)Nc2ccc3c(c2)OCO3)cc1	-41%	-16%	x	2.2%
CCN(CC)CCNC(=O)c1cn(CC)c2ccc(S(=O)(=O)N(C)C3CCCCC3)cc2c1=O	-6%&1%	-2%	x	-2.9%
Cc1ccc2[nH]c(C)c(CC(=O)O)c2c1	3%	-15%	2	u
CCOc1cccc(-c2nn3c(-c4ccccn4)nnc3s2)c1	-36%	-17%	4	u
CCOC(=O)C1=C(N)N(c2ccc(N3CCCCC3)cc2)C(=O)C1	-1%	-1%	3	0.2%
O=C(Nc1ccc([N+](=O)[O-])cc1)N1CCCCCC1	-33%	1%	x	-0.7%
CC(NCc1ccccc1OC1CCCC1)c1ccccc1 (centres undefined)	17%	5%	-12	1.9%
COc1ccc(CNC(=O)CN(C(=O)CCC(=O)Nc2ccccn2)c2ccc(C)cc2)cc1	0%	4%	x	-1.8%
CC1CC1C(=O)Nc1ccc(S(=O)(=O)N2CCCCC2)cc1 (centres undefined)	x	7%	x	0.0%
CCOC(=O)N1CCC(NC(=O)CS(=O)Cc2nc(-c3ccc(Cl)cc3)oc2C)CC1 (centres undefined)	5%	7%	x	2.4%
CC(NC(=O)c1ccccc1)C(=O)OCn1nnc2ccccc2c1=O (centres undefined)	x	11%	x	-5.8%
COc1ccccc1NC(=O)NC1CCCc2ccccc21 (centres undefined)	6%	1%	x	0.4%
OC(COc1ccc2c(c1)OCO2)CN1CCN(c2ccccc2)CC1 (centres undefined)	0%	-5%	-4	1.0%
O=C(Cc1ccc(F)cc1)N/N=C/c1ccc2c(c1)OCO2	-19%	-7%	12	3.0%
SMILES	miR-21 reporter	Rango dissoc inh	GLA inh pH 4.5	Rango-impB inh
O=C(OCC1CCNCC1)c1ccc2c(c1)OCO2	-7%	2%	x	0.3%
COc1ccc(C)cc1NC(=O)C1CCCN1S(=O)(=O)c1ccc2c(c1)CCC(=O)N2 (centres undefined)	-4%	-22%	-3	0.9%
CCCCCOC(=O)C1=C(C)NC(=O)NC1c1ccc(N(C)C)cc1 (centres undefined)	-4%	-18%	x	2.2%
CC1=C(C(N)=O)C(c2ccccc2F)n2nc(CCCO)nc2N1 (centres undefined)	1%	3%	x	0.0%
CC(=O)C(=Cc1ccc(C(=O)O)cc1)C(C)=O	-1%	-3%	6	3.3%
COc1ccc(OC)c2[nH]c(=O)c(CCNC(=O)c3ccc4c(c3)OCO4)cc12	-5%	2%	14	-2.6%
Cc1cccc(NC(=O)C2CCN(S(=O)(=O)c3cccs3)CC2)n1	8%	-13%	0	-1.5%
COc1ccc(NC(=O)COC(=O)CNS(=O)(=O)/C=C/c2ccccc2)cc1OC	x	39%	x	-0.3%
Cn1c(SCc2ccc(F)cc2)nnc1-c1cccs1	-45%	15%	-30	2.0%
CC(C)CCn1c(-c2nonc2N)nc2ccccc21	27%	4%	-3	-3.2%
COc1cccc(C2=NOC(C(=O)NCc3ccccc3)C2)c1 (centres undefined)	3%	1%	2	0.4%
O=C1CCCC(=O)N1c1ccc(N2CCN(c3ccccc3)CC2)c([N+](=O)[O-])c1	0%	-10%	1	-2.9%
Cc1ccsc1C(=O)OCC(=O)N1CCN(C(=O)c2ccco2)CC1	-21%	8%	4	-1.8%
CC(C)C(=O)Nc1cccc(NC(=S)NC(=O)C(c2ccccc2)c2ccccc2)c1	u	-4%	-11	3.5%
c1ccc(CN2C3=NCCCN3c3ccccc32)cc1	0%	-19%	-4	-1.5%
Cc1cccc(C2c3[nH]c4ccccc4c3CCN2C(=O)Cc2nc(-c3ccccc3)n[nH]2)n1 (centres undefined)	14%	0%	2	0.8%
CCS(=O)(=O)c1ccc(C(=O)NC2CC2)c(Cl)c1Cl	-2%	1%	6	0.2%
CC(=O)c1c(C)[nH]c(C(=O)COc2cc(C)cc(C)c2)c1C	2%	17%	-6	4.2%
COCc1cc(=O)[nH]c2cc(NC(=O)C3CC3)c(C)cc12	-3%	-16%	-3	4.2%
Cn1c(N)c(S(=O)(=O)N2CCN(c3ccccc3Cl)CC2)c(=O)n(C)c1=O	-5%	-4%	x	3.8%
COc1cc(/C=N/NC(=O)COc2ccc(C)cc2)ccc1OC(=O)c1cccs1	-26%	23%	-7	-2.0%
CC(C)(C)Nc1nc(C(N)=O)nc(N2CCOCC2)n1	8%	-10%	-12	-2.1%
O=C(N/N=C/c1ccc(O)cc1)c1[nH]c2ccc(Br)cc2c1-c1ccccc1	28%	-18%	-7	6.7%
COc1cc(/C=C2\C(=N)N3N=C(S(C)(=O)=O)SC3=NC2=O)cc(OC)c1OCCOc1ccc(C)cc1	-7%	-1%	x	0.2%
CC(C)(C)CC(=O)Nc1cc2c3c(c1)CC(=O)N3CCC2	-15%	-14%	x	-1.8%

Some of the entries so far, with each value named.
Cn1c(SCc2ccc(F)cc2)nnc1-c1cccs1
  miR-21 reporter = -45%; Rango dissoc inh = 15%; GLA inh pH 4.5 = -30; Rango-impB inh = 2.0%
O=C(N/N=C/c1ccc(O)cc1)c1[nH]c2ccc(Br)cc2c1-c1ccccc1
  miR-21 reporter = 28%; Rango dissoc inh = -18%; GLA inh pH 4.5 = -7; Rango-impB inh = 6.7%

The results go on.
SMILES	miR-21 reporter	Rango dissoc inh	GLA inh pH 4.5	Rango-impB inh
CCOc1ccc(OCC)c(NC(=O)CN2CCN(c3cccc(C)c3)CC2)c1	-7%	-1%	-16	-2.8%
CCc1ccc(OCC(=O)NC(C)(C)C)cc1	-4%	7%	3	0.8%
CCCn1c2ccccc2c2cnn(CC(=O)NCCCN3CCCC(C)C3)c(=O)c21 (centres undefined)	-5%	2%	x	-0.1%
O=C(NCCO)C(=O)c1c(-c2ccc(Cl)cc2)cc2ccccn12	3%	-10%	-4	-1.7%
CCC1(CC)NC(=O)N(CC(=O)Nc2ccc(OCc3ccccc3)cc2)C1=O	x	-13%	x	-0.8%
Cc1c(N=NC2=C(O)CCCC2=O)c(=O)n(-c2ccccc2)n1C	-1%	-8%	-1	0.8%
COc1ccc(CNC(=O)COC(=O)c2ccccn2)cc1	-2%	-3%	1	-4.0%
CCN=C1SC(C(=O)Nc2ccc(Cl)c(Cl)c2)CC(=O)N1CC (centres undefined)	-2%	-18%	2	-0.4%
COc1cccc(N(C(=O)Cn2nnc3ccccc32)C(C(=O)NCc2ccco2)c2cccnc2)c1 (centres undefined)	-3%	-20%	3	-2.2%
O=C(/C=C/c1cccc([N+](=O)[O-])c1)Nn1c(-c2ccccc2F)nc2ccccc2c1=O	-3%	u	-7	-0.4%
COc1ccc(C(=O)Nc2ccc(NC(=O)c3cnccn3)cn2)cc1	1%	-2%	6	-3.3%
CCOC(=O)C1(CCOc2ccccc2)CCN(Cc2ccccc2O)CC1	x	1%	x	-1.1%
CC(=O)N1N=C(c2cccs2)CC1c1ccco1 (centres undefined)	4%	13%	-3	-0.9%
Cc1ccc(/C=C(\C#N)C(=O)N2CCCC2)c(C)c1	-23%	0%	10	-2.0%
COc1ccc(-c2cc(C)no2)cc1S(=O)(=O)N1CCOc2ccc(C)cc21	-9%	1%	x	4.7%
CCc1ccc(OCC(=O)Nc2ccc(S(=O)(=O)N3CCCC3)cc2)c(Br)c1	-1%	-1%	-1	0.0%
COCCNC(=O)c1c(N)n(-c2ccccc2)c2nc3ccccc3nc12	-2%	u	u	u
Cc1nn(-c2ccccc2)nc1C(=O)OCC(=O)N1CCCCC1C (centres undefined)	x	3%	x	-3.0%
Cc1coc(C)c1C(=O)CC1(O)C(=O)N(CCc2ccccc2)c2ccccc21 (centres undefined)	-6%	-5%	-10	-5.1%
O=C(CCC(=O)N1CCN(S(=O)(=O)c2ccc3ccccc3c2)CC1)Nc1cc(Cl)cc(Cl)c1	-6%	10%	-5	0.2%
CCNc1nc(NC(C)C)nc(NS(=O)(=O)c2ccc(Cl)cc2)n1	1%	16%	1	-2.3%
COc1ccc(Cl)cc1C(=O)NNC(=S)NC1CCCCC1	-2%	23%	6	0.0%
CCN(CC)S(=O)(=O)c1ccc2c(c1)c(=O)c(C(=O)NCCOC)cn2C	4%	8%	9	1.5%
NC(=S)Nc1cnc2ccccc2c1	-31%	0%	6	6.0%
COc1ccc(CCNC(=O)c2cc(C(=O)c3cc(Cl)ccc3O)cn(CCc3ccc(OC)cc3)c2=O)cc1	0%	-1%	-28	u
SMILES	miR-21 reporter	Rango dissoc inh	GLA inh pH 4.5	Rango-impB inh
Cc1ccc(OCC(=O)Nc2ccc3c(c2)C(=O)N(CCC(=O)O)C3=O)cc1	9%	-1%	x	-0.1%
c1ccc(CN2CCCC3(CCCN(Cc4nc(COc5ccccc5)no4)C3)C2)cc1 (centres undefined)	-3%	1%	-8	-3.5%
Cc1cc(C(=O)NC(C)C2CCCO2)no1 (centres undefined)	3%	17%	8	1.9%
COCCn1c(COc2ccc(Cl)cc2)nnc1SCC(N)=O	-7%	-6%	-6	-4.1%
COc1ccc(CNC(=O)CSc2ncnc3nc[nH]c23)cc1	-16%	-5%	-3	0.0%
Cn1c(=O)c2cn(Cc3ccc(Cl)cc3)cc2n(C)c1=O	0%	-3%	-2	2.3%
COc1ccc2c(c1)c(=O)c(C(=O)O)c(-c1ccc3c(c1)OCO3)n2C	-20%	0%	-9	1.6%
O=C(N/N=C(\c1ccccc1)c1cccnc1)c1cccc(F)c1	10%	-1%	x	-1.7%
O=S(=O)(c1ccc(Br)cc1)N1CCCc2ccccc21	4%	-12%	x	-1.5%
c1ccc(CNc2nc(N3CCN(Cc4ccccc4)CC3)nc3ccccc23)cc1	u	-7%	0	-0.1%
Cc1ccc(NC(=O)C2CCC(CNC(=O)[C@@H]3Cc4ccccc4CN3)CC2)c(C)c1 (some centres undefined)	-15%	-4%	x	-0.8%
Cc1cc(OCCCn2ccnc2)ccc1[N+](=O)[O-]	-4%	10%	x	0.0%
O=C(Cn1nnc(N2CCCC2)n1)N/N=C/c1ccc(Cl)cc1	0%	1%	-8	-1.0%

Results in Rango dissoc inh (3 entries from above):
SMILES | Rango dissoc inh
c1ccc(CN2CCCC3(CCCN(Cc4nc(COc5ccccc5)no4)C3)C2)cc1 (centres undefined) | 1%
Cc1cc(C(=O)NC(C)C2CCCO2)no1 (centres undefined) | 17%
COCCn1c(COc2ccc(Cl)cc2)nnc1SCC(N)=O | -6%

These rows are one share of the data; the hit share may differ from the screen's.
